Source: PubChem (several laboratories)
GALR2 ag = activates the human galanin receptor 2; O43603; activation, %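 (tested at 5 µM)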; GALR2-expressing cells, agonist activation read-out; 140,000 tested, 0.48% active;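 active = above mean plus 3 SD of all compounds, about 5% in these data, not always enough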;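 also: 0% = vehicle buffer wells and 100% = reference agonist at full effect; tested in CHO reporter cells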
Target sequence (O43603 whole entry, looked up): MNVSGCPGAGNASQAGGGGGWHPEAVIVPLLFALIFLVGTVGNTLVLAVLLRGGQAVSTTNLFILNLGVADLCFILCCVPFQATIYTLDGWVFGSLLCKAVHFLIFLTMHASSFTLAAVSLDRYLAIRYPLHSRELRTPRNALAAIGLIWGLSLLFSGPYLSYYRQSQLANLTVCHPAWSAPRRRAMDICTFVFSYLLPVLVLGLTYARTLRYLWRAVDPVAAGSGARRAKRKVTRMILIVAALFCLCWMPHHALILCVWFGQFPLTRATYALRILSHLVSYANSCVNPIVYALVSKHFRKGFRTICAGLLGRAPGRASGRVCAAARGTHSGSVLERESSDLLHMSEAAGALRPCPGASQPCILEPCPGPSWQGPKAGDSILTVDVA
HSV augment = HSV replication enhancement | HSV replication augmentation in cells, fold increase | maximum fold increase | 220,000 tested, 0.005% active;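 active = peak rise of 1.5-fold or more in the series; inconclusive = self-fluorescent or not available for retest; tested in PC3 cells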;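 also: first round at 10 µM; read as green reporter fluorescence; hits show the peak of a series up to 25 µM; 1 = signal of infected wells without compound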
RGS16-Gao = modulates binding between human RGS16 and Galphao; binding response (% of control), % at 10 µM; 220,000 tested, 0.38% active; bead-based flow cytometry RGS16-Galphao binding, fluorescence; actives lie on both sides;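 active = below 25% or above 175%, edge rows of some plates excepted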;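 also: Galphao activated by GDP with aluminum fluoride before binding; 100% = wells without compound and 0% = beads without RGS; some results beyond the cut were filed as inactive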
Target sequence (O15492 whole entry, looked up): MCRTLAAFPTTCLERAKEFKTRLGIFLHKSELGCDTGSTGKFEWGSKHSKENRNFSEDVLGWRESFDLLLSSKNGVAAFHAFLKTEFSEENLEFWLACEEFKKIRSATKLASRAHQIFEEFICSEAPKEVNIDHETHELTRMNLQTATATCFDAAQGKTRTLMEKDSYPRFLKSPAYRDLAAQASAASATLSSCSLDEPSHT
Target sequence (P09471 whole entry, looked up): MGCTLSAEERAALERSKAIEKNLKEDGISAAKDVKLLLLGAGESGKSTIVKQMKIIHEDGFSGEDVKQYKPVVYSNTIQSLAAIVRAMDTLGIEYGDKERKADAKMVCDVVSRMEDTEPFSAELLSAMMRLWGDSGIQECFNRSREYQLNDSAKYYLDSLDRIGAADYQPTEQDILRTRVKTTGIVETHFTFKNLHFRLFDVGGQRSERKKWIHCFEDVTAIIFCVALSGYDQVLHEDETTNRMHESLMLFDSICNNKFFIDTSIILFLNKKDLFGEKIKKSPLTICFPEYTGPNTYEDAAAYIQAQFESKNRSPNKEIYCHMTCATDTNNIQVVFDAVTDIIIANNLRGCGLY
Insulin prom inh = TRM-6 insulin promoter activity inhibition; TRM-6 cells (human fetal islet line), insulin promoter-eGFP reporter, imaging; reporter expression induced with tamoxifen; inhibition, % at 2 µM; 130,000 tested, 0.9% active;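 active = inhibition above the mean plus 3 SD, with well images judged a real hit on visual review, cut at about 60% in these data, passing the limit was not always enough; inconclusive = inhibition over the cutoff but images rejected on review; inactive = inhibition not above the cutoff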
PKD1 kinase inh = PKD1 (human) kinase inhibition. inhibition, %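 (about 10 µM by stock and volumes)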. 200,000 tested, 0.056% active. PKD1 kinase fluorescence polarization assay. AID 797;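 active = inhibition of 50% or more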;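 also: controls were vehicle for no effect and a reference inhibitor for full effect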
Insulin prom inh cell count = recorded beside Insulin prom inh, whose call it bears; normalized cell count, %; measured here: cell count, toxicity; reference of the scale not given here;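 cells exposed to compound for 48 h; stained nuclei by imaging scaled within each plate; lower means fewer cells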
HSV augment primary fold = recorded beside HSV augment, whose call it bears; fold increase; compound at 10 µM; measured here: primary screen fold increase 10 uM; tested in PC3 cells;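 GFP signal in the first replicate; 1 = infected wells without compound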
* = called active by the depositor; i = inactive; ? = inconclusive; nt = not tested or not shown.

SMILES | GALR2 ag | HSV augment | HSV augment primary fold | RGS16-Gao | Insulin prom inh | Insulin prom inh cell count | PKD1 kinase inh
Cc1ccc2c(c1)C1(C(=O)N2C)N2CC3(C)CN1CC(C)(C2)C3=O (configuration not stated) | -2.3 | i | 0.96 | 100 | -46 | 97 | 4
Cc1nn(Cc2c(Cl)cccc2Cl)c(C)c1NC(=O)Cn1nc([N+](=O)[O-])c(Cl)c1C | 1.0 | i | 0.85 | 103 | 7 | 101 | -6
NC[C@@]12CCCC1C1CCC2C1 (some centres not stated) | -0.5 | i | 1 | nt | -13 | 111 | -5
Cc1cc(C(=O)COC(=O)Cc2n[nH]c(=O)c3ccccc23)c(C)n1-c1cccc(C(F)(F)F)c1 | 1.2 | i | 0.83 | 99 | 6 | 108 | -5
COc1ccc(CNCC(O)COCc2cccs2)cc1 (configuration not stated) | -0.3 | i | 1 | 104 | -30 | 55 | -4
O=C(CSCc1ccccc1)Nc1ccc(F)cc1F | nt | i | 1.1 | 105 | nt | nt | -6
COc1cc(-n2c(-c3ccccc3)n[nH]c2=S)c(OC)cc1Cl | nt | i | 1.1 | 104 | nt | nt | -2
Nc1nonc1-n1nnc(C(=O)N/N=C/c2ccc(OCc3ccccc3)cc2)c1COc1ccc(F)cc1 | nt | i | 0.73 | 101 | nt | nt | nt
Cc1ccc(C(=O)CN(C(=O)c2ccc(Cl)c(Cl)c2)N2C(=O)C3CCCCC3C2=O)cc1 (configuration not stated) | -0.1 | i | 1.1 | 109 | 54 | 152 | 4
CCc1nnc(NC(=O)c2ccc(COc3ccccc3)o2)s1 | -3.0 | i | 0.88 | 99 | 43 | 150 | -12
COC(=O)c1sccc1NC(=O)c1csc2c1CCCC2 | 7.9 | i | 0.98 | 98 | 60 | 112 | 2
O=C(Nc1ccc(-c2nnc(-c3ccccc3)o2)cc1)c1ccc(Br)o1 | -1.0 | i | 1 | nt | -10 | 66 | -6
CC(=O)Nc1ccc2nc3c(=O)n(C)c(=O)n(C)c3nc2c1 | nt | ? | nt | 90 | nt | nt | nt
COc1cccc(/C=N/NC(=S)NC2CC3CCC2C3)c1OC (configuration not stated) | nt | i | 0.91 | 97 | nt | nt | nt
COc1ccc(N(CC(=O)NC(C)(C)C)S(=O)(=O)c2ccccc2)cc1OC | -2.5 | i | 0.83 | 103 | -18 | 99 | -9
Nc1c(-c2ccccc2)cnc2cc(-c3ccccc3)nn12 | nt | i | 0.9 | 97 | -29 | 103 | -3
CC1=Nc2ccccc2N=C(NC(=O)c2ccccc2)C1c1ccccc1 (configuration not stated) | nt | i | 0.97 | 103 | nt | nt | 2
C=CCn1cccc(C(=O)Nc2cc(OC)cc(OC)c2)c1=O | nt | i | 0.96 | 102 | 26 | 77 | 0
CC1(C)Cc2c(ccc3ccccc23)C(=O)N1 | -2.6 | i | 0.88 | 104 | 28 | 28 | 0
CC(Sc1nc(-c2ccccc2)cc(C(F)(F)F)n1)C(=O)O (configuration not stated) | nt | i | 1 | 52 | nt | nt | -6
CC(=O)c1ccccc1OCCOCCOCCOc1ccccc1C(C)=O | nt | i | 0.95 | 103 | -29 | 110 | 3
CC(C)(C)NC(=S)NNC(=O)c1ccc2ncccc2c1 | nt | i | 0.74 | 104 | nt | nt | -3
COc1cccc(CNC(=O)Cn2cc3c(n2)CCCC3)c1 | -1.3 | i | 1.1 | 152 | nt | nt | -4
C/C(=N\NC(=O)CN1CCN(S(=O)(=O)c2ccc(C)cc2)CC1)c1ccc(O)cc1 | nt | i | 0.91 | 107 | nt | nt | nt
CCOC(=O)N1CCN(C(=O)CNS(=O)(=O)c2cccs2)CC1 | -1.6 | i | 0.91 | 101 | -33 | 75 | -2

Compound profiles, as listed above. Values in the order: GALR2 ag | HSV augment | HSV augment primary fold | RGS16-Gao | Insulin prom inh | Insulin prom inh cell count | PKD1 kinase inh
CC1(C)Cc2c(ccc3ccccc23)C(=O)N1 across the screens: -2.6 | i | 0.88 | 104 | 28 | 28 | 0
CC(C)(C)NC(=S)NNC(=O)c1ccc2ncccc2c1 across the screens: nt | i | 0.74 | 104 | nt | nt | -3

Grouped by structure, the entries above with four or more nitrogen atoms.
SMILES | GALR2 ag | HSV augment | HSV augment primary fold | RGS16-Gao | Insulin prom inh | Insulin prom inh cell count | PKD1 kinase inh
Cc1nn(Cc2c(Cl)cccc2Cl)c(C)c1NC(=O)Cn1nc([N+](=O)[O-])c(Cl)c1C | 1.0 | i | 0.85 | 103 | 7 | 101 | -6
Nc1nonc1-n1nnc(C(=O)N/N=C/c2ccc(OCc3ccccc3)cc2)c1COc1ccc(F)cc1 | nt | i | 0.73 | 101 | nt | nt | nt
CC(=O)Nc1ccc2nc3c(=O)n(C)c(=O)n(C)c3nc2c1 | nt | ? | nt | 90 | nt | nt | nt
Nc1c(-c2ccccc2)cnc2cc(-c3ccccc3)nn12 | nt | i | 0.9 | 97 | -29 | 103 | -3
CC(C)(C)NC(=S)NNC(=O)c1ccc2ncccc2c1 | nt | i | 0.74 | 104 | nt | nt | -3
C/C(=N\NC(=O)CN1CCN(S(=O)(=O)c2ccc(C)cc2)CC1)c1ccc(O)cc1 | nt | i | 0.91 | 107 | nt | nt | nt

Following part
SMILES | GALR2 ag | HSV augment | HSV augment primary fold | RGS16-Gao | Insulin prom inh | Insulin prom inh cell count | PKD1 kinase inh
O=S1(=O)CCN(Cc2ccccc2Cl)CC1 | 0.0 | i | 0.96 | 104 | -30 | 54 | -4
Cc1ccc(C)c(OCc2nnc(NC(=O)c3ccc4c(c3)OCO4)s2)c1 | nt | i | 0.92 | 102 | nt | nt | nt
CCCn1c(NCc2cccs2)nc2ccccc21 | -2.5 | i | 1 | 147 | nt | nt | 7
O=C(CCN1CCN(c2ccccc2)CC1)Nc1ccc2c(c1)OCO2 | -1.1 | i | 0.78 | 95 | nt | nt | -2
Cc1cc(-c2nsc(=O)o2)c(S(C)(=O)=O)s1 | -1.3 | nt | nt | 97 | nt | nt | -8
Cc1cc(C(=O)COC(=O)CC2Sc3ccccc3NC2=O)c(C)n1-c1cccc(C(F)(F)F)c1 (configuration not stated) | 0.5 | i | 0.93 | 118 | 22 | 56 | -6
CCN(CC)C(=O)c1n[nH]c(=O)c2ccccc12 | -1.4 | i | 0.92 | 101 | 17 | 101 | -5
CC(C)(C)C(=O)Nc1cc2nn(-c3ccccc3)nc2cc1Cl | -1.4 | i | 0.97 | 104 | -21 | 136 | -3
COc1ccc(NC(=O)N(CCO)Cc2cc3c(C)cc(C)cc3[nH]c2=O)cc1 | 0.0 | i | 0.94 | 92 | -30 | 132 | -1
CSc1nc2ccc(NS(=O)(=O)c3ccc(Cl)s3)cc2s1 | -0.1 | i | 1.1 | 105 | -64 | 68 | -7
Cc1cc(Cl)ccc1Oc1ncc(CN2CCN(c3ccccc3)CC2)s1 | -1.9 | i | 1.1 | 96 | nt | nt | 6
CN(C(=O)c1ccco1)c1nc(CC(=O)Nc2ccccc2)cs1 | -1.7 | i | 0.88 | 125 | 44 | 88 | -2
Cn1c(SCc2ccc(C#N)cc2)nnc1-c1cccc(Cl)c1 | -0.3 | i | 0.75 | 102 | -42 | 104 | -2
Cc1cc(NC(=O)CSc2nnc(Cc3ccccc3)o2)no1 | -1.1 | i | 1 | 104 | -50 | 89 | 0
COc1ccc(-c2csc(NC(=O)CSc3nc(SC)ns3)n2)cc1 | -0.6 | i | 0.87 | 101 | 41 | 80 | -9
COC(=O)c1c(NC(=O)CSc2nnnn2-c2ccccc2)sc2c1CCCC2 | -0.9 | i | 0.93 | 69 | -3 | 62 | -12
C/C(=C\c1ccccc1)C(=O)n1nnc2ccccc21 | 0.2 | i | 0.91 | 105 | 38 | 61 | 9
Cc1cccc(-n2cc(CN3CCN(Cc4nccn4C)CC3)c(-c3cccc(F)c3)n2)c1 | nt | i | 0.87 | 96 | nt | nt | 8
CCCOc1ccc(N2C(=O)CC(SC(=N)N3N=C(c4ccccc4)CC3c3ccccc3)C2=O)cc1 (configuration not stated) | nt | i | 0.9 | 98 | 41 | 109 | 4
CC(NC(=O)Nc1cccc(Cl)c1)C(c1cccs1)N1CCCC1 (configuration not stated) | 0.3 | i | 0.89 | 109 | 27 | 207 | 3
CCC1=C(OC(=O)N(CC)CC)N2C(=O)OC(=NCC(=O)OC)[C@]2(Cc2ccccc2)[C@H]2C1=CC[C@H]1C(=O)N(C)C(=O)[C@H]12 | nt | i | 0.98 | 96 | nt | nt | nt
CCCSc1nc2ccsc2c(=O)n1CC | nt | i | 1.1 | 99 | -31 | 104 | 2
O=C(COC(=O)Cn1cnc2ccccc21)Nc1cc(S(=O)(=O)N2CCOCC2)ccc1Cl | nt | i | 0.95 | 103 | nt | nt | nt
COc1ccc(-c2nc(NC(=O)CSCCO)sc2C)cc1 | nt | i | 1.1 | 103 | nt | nt | 0
C=CCOc1c(Br)cc(/C=C2/NC(=S)N(C(C)=O)C2=O)cc1OC | nt | i | 1 | 88 | nt | nt | 4

Molecules above containing bromine, in the order listed:
SMILES | GALR2 ag | HSV augment | HSV augment primary fold | RGS16-Gao | Insulin prom inh | Insulin prom inh cell count | PKD1 kinase inh
O=C(Nc1ccc(-c2nnc(-c3ccccc3)o2)cc1)c1ccc(Br)o1 | -1.0 | i | 1 | nt | -10 | 66 | -6
C=CCOc1c(Br)cc(/C=C2/NC(=S)N(C(C)=O)C2=O)cc1OC | nt | i | 1 | 88 | nt | nt | 4

(cont.)
SMILES | GALR2 ag | HSV augment | HSV augment primary fold | RGS16-Gao | Insulin prom inh | Insulin prom inh cell count | PKD1 kinase inh
NC(=NC(=O)c1ccc(OC(F)(F)F)cc1)c1ccc(C(F)(F)F)cn1 | nt | i | 0.93 | 103 | nt | nt | nt
Cc1ccc(/C=C2\SC(=S)N(Cc3ccccc3)C2=O)o1 | -2.1 | i | 0.88 | 100 | 10 | 105 | 7
c1ccc(Cn2cc(CNc3ccccc3)nn2)cc1 | nt | i | 1.2 | 103 | nt | nt | nt
Cc1ccc(S(=O)(=O)NNC2CC(=O)N(c3ccc(Br)cc3)C2=O)cc1 (configuration not stated) | nt | i | 0.8 | 100 | nt | nt | -9
O=C(Cn1c(-c2ccccc2)c[n+]2ccsc12)c1ccc([N+](=O)[O-])cc1 | nt | i | 0.97 | 95 | 33 | 119 | -2
O=C(OCc1cnc(Cl)s1)c1cccc(Cl)c1Cl | -0.9 | i | 0.94 | 101 | -2 | 157 | 0
O=C(O)CNC(=O)c1ccccc1NC(=O)c1ccco1 | -0.3 | i | 0.64 | 45 | -30 | 128 | -8
Cc1cc(C(=O)O)c(=O)[nH]c1C | -0.2 | i | 0.68 | 99 | -54 | 82 | 5
CCOc1ccc(NC(=O)c2ccc3snnc3c2)cc1 | -1.1 | i | 0.83 | 105 | nt | nt | -6
CC(=O)Nc1ccc(S(=O)(=O)Nc2nc3ccccc3nc2N2CCCC2)cc1 | 1.1 | i | 0.93 | 90 | 5 | 57 | -7
COc1cc(OC)cc(C(=O)NCC(=O)OC2CCOC2=O)c1 (configuration not stated) | -2.9 | i | 0.82 | 107 | nt | nt | 3
CNC(=O)NCC12CC3CC(CC(C3)C1)C2 | 0.4 | i | 1.2 | 108 | nt | nt | -8
Cc1ccc2[nH]c(=O)c(C(c3nnnn3C3CCCC3)N3CCCc4ccccc43)cc2c1 (configuration not stated) | -1.6 | i | 0.83 | 103 | -144 | 126 | -1
